Compound activity (PubChem BioAssay)
miR-21 FLuc – qHTS Assay for Modulators of miRNAs and/orActivators of miR-21. 340,000 tested, under 10 active. HeLa miR-21 FLuc reporter, luciferase, 48 h. AID 2288, 2010. Potency, µM (titrated, usually from 38.3 µM), inactives show at the top dose reporter change, positive = more light; active = well fitted rising curve with a large enough effect; inconclusive = small, poorly fitted or top-dose-only effect; inactive = no such curve, though single readings can be large or run the other way;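 further: % of control where 0% means no effect; miR-21 action dims this reporter so a rising signal means less miR-21 action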
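Compounds were titrated across several concentrations (up to approximately 40 uM) and incubated 48 hours with HeLa miR-21-FLuc reporter cells (miR-21 target sequence downstream of FLuc, endogenous miR-21). Readout was firefly luciferase luminescence after lytic detection reagent.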
GLA inh pH 4.5 – qHTS Assay for Inhibitors of Human alpha-Galactosidase at pH 4.5; purified enzyme, 4-MU-alpha-Gal fluorescence, pH 4.5; 230,000 tested, under 10 active; Alpha-galactosidase A (Homo sapiens), P06280; AID 1467, 2008; activity change, negative = inhibition, % at 105 µM; inconclusive = small, poorly fitted or top-dose-only inhibition, or a rising curve; inactive = flat fitted curve, though single readings scatter; no compound was filed as active;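 further: 0% = full activity with enzyme and -100% = basal without enzyme; dose as in the result columns while the protocol names 77 µM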
Target sequence (P06280 whole entry, looked up): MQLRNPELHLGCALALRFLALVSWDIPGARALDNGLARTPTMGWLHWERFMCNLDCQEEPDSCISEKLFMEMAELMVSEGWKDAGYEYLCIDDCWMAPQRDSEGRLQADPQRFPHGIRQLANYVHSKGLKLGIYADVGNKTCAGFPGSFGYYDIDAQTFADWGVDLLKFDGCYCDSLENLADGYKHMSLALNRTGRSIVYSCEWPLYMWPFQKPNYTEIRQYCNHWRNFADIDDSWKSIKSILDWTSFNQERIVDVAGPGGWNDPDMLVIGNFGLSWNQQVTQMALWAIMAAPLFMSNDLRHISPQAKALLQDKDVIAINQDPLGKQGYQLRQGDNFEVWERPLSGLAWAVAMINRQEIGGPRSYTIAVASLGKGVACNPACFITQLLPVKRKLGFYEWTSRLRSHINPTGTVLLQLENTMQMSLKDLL
Rango release inh – qHTS Assay for Inhibitors of RanGTP induced Rango (Ran-regulated importin-beta cargo) - Importin beta complex dissociation. AID 540253, 2011. Potency, µM (doses to about 46.1 µM), for inactives: at the highest dose activity change, negative = inhibition. Biochemical FRET Rango-importin beta, RanGTP-induced dissociation. hit rate 0.071% among 340,000. Snurportin-1 (Homo sapiens) + GTP-binding nuclear protein Ran (Homo sapiens) + Importin …; active means falling FRET ratio curve, often poorly fitted, with flat reads before Ran was added; inconclusive means other falling curves, or compound fluorescence or quenching; inactive means flat or rising ratio curve;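 further: potency means the concentration at half of the fitted maximal effect; % of control where 0% means no effect; nearly all actives have a fitted effect of over 45% in size; -100% = wells without RanGTP and RCC1; the record marks most hits as doubtful in a second field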
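Compounds sat 5 min at room temperature with 0.1 uM Rango biosensor plus 0.25 uM importin beta, then FRET pre-read. RanGTP-RCC1 (0.6 uM Ran, 2mM GTP, 0.2 uM RCC1) added for 45 min, and the CFP/YFP post-read measured blocked complex dissociation.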
Rango-impB inh – qHTS Assay for Inhibitors of Rango (Ran-regulated importin-beta cargo) - Importin beta complex formation; Importin subunit beta-1 (Homo sapiens), Q14974; Rango CFP/YFP FRET sensor + importin beta, 45 min; Potency, µM (highest dose often 92.2 µM), inactives show at the highest dose inhibition of complex formation; hit rate 0.031% among 340,000; active = rising FRET ratio curve, often small or poorly fitted; inconclusive = mostly compound fluorescence or quenching in the first reads; inactive = flat curves in all reads;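 further: potency means the concentration at half of the fitted maximal effect; 0% = DMSO wells and 100% = buffer wells lacking importin beta; nearly all actives have a fitted effect of over 15% in size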
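FRET biosensor Rango (snurportin 1 IBB between N-terminal EYFP and C-terminal Cerulean), 50 nM in PBS/1 mM DTT/0.02% Tween-20/0.1% BSA, preincubated 5 min RT with compound; 0.125 microM importin beta added, 45 min RT, CFP/YFP FRET ratio read.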
Active calls of the source: *; & = joins results of further samples.

Cc1ccc2cc(C)c(SCC(=O)NCc3ccco3)nc2c1 was read as miR-21 FLuc 9.7%, GLA inh pH 4.5 1.9, Rango release inh -8.8% and Rango-impB inh -2.3%.
`CC(C)(Oc1ccc(Cl)cc1)C(=O)N1CCC(C(N)=O)CC1` gave miR-21 FLuc -0.3%, GLA inh pH 4.5 0.8, Rango release inh -0.9% and Rango-impB inh -2.3%.
Screening O=C(OCc1nc2scc(-c3ccccc3)c2c(=O)[nH]1)c1ccco1 returned Rango release inh -7.6% and Rango-impB inh 2.7%.
`CCOc1ccc2nc(NCCCO)[nH]c2c1` gave miR-21 FLuc -9.8%, GLA inh pH 4.5 3.3, Rango release inh 1.2% and Rango-impB inh 10.3%.
`O=C(NCCCc1ccccc1)C(=O)NCC1OCCN1S(=O)(=O)c1ccc(F)cc1` (stereo unspecified) gave miR-21 FLuc 3.1%, Rango release inh -0.2% and Rango-impB inh inconclusive.
`O=C1C=C(c2cc3ccccc3s2)C[C@@H](c2ccc(Cl)cc2)C1` gave Rango release inh 1.0% and Rango-impB inh 2.4%.
CCOC(=O)[C@H]1[C@H]2COc3ccc(Br)cc3[C@@H]2N2C(=O)N(c3ccc(F)cc3)C(=O)[C@@]12C was read as Rango release inh 0.8% and Rango-impB inh 0.0%.
Screening O=C1NC(=Nc2ccccc2)S/C1=C/c1cccs1 returned miR-21 FLuc -31.7%, GLA inh pH 4.5 -8.1, Rango release inh 4.9% and Rango-impB inh 3.7%.
Screening CCN(C(=O)Cn1nc(C)c([N+](=O)[O-])c1C)C1CCS(=O)(=O)C1 (stereo unspecified) returned Rango release inh 5.8% and Rango-impB inh -0.7%.
`CN1CCN(C(=O)C2=C[C@@H](c3ccccc3)C[C@@H](OCCCCO)O2)CC1` gave miR-21 FLuc -2.7%, GLA inh pH 4.5 -13.2, Rango release inh -24.6% and Rango-impB inh -0.8%.
Cc1nnc(N(Cc2ccccc2)C(=O)c2cnccn2)s1 was read as miR-21 FLuc -9.5%, GLA inh pH 4.5 1.5, Rango release inh -8.1% and Rango-impB inh 4.6%.
COc1ccc(/C=C/C(=O)N2CCN(S(=O)(=O)c3ccccc3Br)CC2)cc1OC was read as Rango release inh 8.6% and Rango-impB inh -0.8%.
For NC(=O)[C@H]1CC2(CC(c3cccc(NC(=O)[C@H]4CCC(=O)N4)c3)=NO2)CN1C(=O)CC(c1ccccc1)c1ccccc1 (stereo partly specified) the results were miR-21 FLuc 0.0%, GLA inh pH 4.5 -4.1, Rango release inh 2.3% and Rango-impB inh 4.2%.
Screening CC1(C)O[C@@H]2[C@H](O1)[C@@H](CO)O[C@H]2n1c(N2CCCCC2)nc2c(N)ncnc21 returned Rango release inh -2.0% and Rango-impB inh -0.3%.
`COc1ccc(S(=O)(=O)N2CCOCC2)cc1NC(=O)Cc1sc(C)nc1-c1ccc(F)cc1` gave Rango release inh -8.5% and Rango-impB inh -3.7%.
For C=CC[C@@H](CC(=O)N[C@@H](CO)Cc1ccccc1)C(=O)N[C@@H](COC(=O)[C@@H](CC=C)Cc1ccc(F)cc1)Cc1ccccc1 the results were Rango release inh 27.5% and Rango-impB inh -1.1%.
For CCOC(=O)c1c(NC(=O)c2cc(-c3ccc(O)cc3)on2)sc(C(C)=O)c1C the results were miR-21 FLuc -5.8%, GLA inh pH 4.5 2.8, Rango release inh -8.5% and Rango-impB inh -2.2%.
O=C(/C=C/c1ccc(O)c(O)c1)NC(=O)c1ccccc1O was read as miR-21 FLuc -24.1%, GLA inh pH 4.5 -5.0, Rango release inh -2.1% and Rango-impB inh -0.2%.
For O=C(COC(=O)c1cc(Br)ccc1O)Nc1ccc2c(c1)OCCO2 the results were Rango release inh -8.1% and Rango-impB inh 1.1%.
CCOc1ccccc1C=NNC(=O)c1cccc2ccccc12 was read as Rango release inh 2.7% and Rango-impB inh 2.4%.
Screening COc1ccccc1N1CCN(/N=C/c2ccc(C(=O)O)cc2)CC1 returned miR-21 FLuc -56.1%, Rango release inh -0.8% and Rango-impB inh 0.3%.
For CCOC(=O)c1cnc(-n2cc(C)cn2)nc1Nc1ccccc1OC the results were miR-21 FLuc -4.3%, GLA inh pH 4.5 -3.9, Rango release inh 0.2% and Rango-impB inh -1.0%.
`Cc1nc(N2CCN(c3ccccc3)CC2)[nH]c(=O)c1Cc1ccccc1` gave miR-21 FLuc -1.5%, GLA inh pH 4.5 1.8, Rango release inh -10.9% and Rango-impB inh -4.8%.
Fc1ccc(-c2csc(Nc3ccccn3)n2)cc1 was read as miR-21 FLuc -17.7%, Rango release inh -9.2% and Rango-impB inh 0.8%.
COc1ccc(/C=N/Nc2ncnc3sc4c(c23)CCCC4)cc1O was read as miR-21 FLuc -38.7%, GLA inh pH 4.5 2.1, Rango release inh 2.3% and Rango-impB inh inconclusive.
CCCCC1=CC2=CC(=O)C(C)(OC(=O)CC)C(=O)C2=CN1Cc1ccco1 (stereo unspecified) was read as miR-21 FLuc 1.5%, GLA inh pH 4.5 0.9&-8.0, Rango release inh inconclusive and Rango-impB inh inconclusive.
For O=C(CNCCc1ccccc1)Nc1ccc(C(=O)N2CCCCC2)cc1 the results were miR-21 FLuc -1.1%, Rango release inh -1.5% and Rango-impB inh 0.4%.
For O=C(O)/C=C/c1cn(Cc2ccccc2Cl)nc1-c1ccccc1 the results were miR-21 FLuc -22.2%, GLA inh pH 4.5 -4.0, Rango release inh -10.6% and Rango-impB inh 0.1%.
`Cc1cccc(CC(=O)Nc2cc(C)c3c(=O)oc4ccccc4c3n2)c1` gave miR-21 FLuc 0.1%, GLA inh pH 4.5 6.6, Rango release inh -8.7% and Rango-impB inh inconclusive.
CCN(CC(=O)Nc1c(F)cccc1F)C(=O)c1cc2ccccc2oc1=O was read as Rango release inh 0.0% and Rango-impB inh -1.0%.
Screening Cn1cccc1Cc1nnc(SCC(=O)NCCc2ccccc2)n1-c1ccc(F)cc1 returned miR-21 FLuc 2.3%, GLA inh pH 4.5 -0.1, Rango release inh -6.8% and Rango-impB inh 2.9%.
`COc1ccc(NC(=O)CCN2C(=O)C3CC=C(Cl)CC3C2=O)cc1` (stereo unspecified) gave miR-21 FLuc -17.1%, GLA inh pH 4.5 -2.3, Rango release inh 0.9% and Rango-impB inh inconclusive.
CCCCn1c(N)c(N(C)C(=O)C2CC(=O)N(Cc3ccco3)C2)c(=O)[nH]c1=O (stereo unspecified) was read as Rango release inh -1.9% and Rango-impB inh -1.2%.
CCCCNC(=O)C1CC(=O)N(c2ccc(OC)cc2)C1c1ccc(OC)cc1 (stereo unspecified) was read as miR-21 FLuc -5.6%, GLA inh pH 4.5 3.7, Rango release inh 7.7% and Rango-impB inh 0.3%.
For O=C(COC(=O)COc1ccccc1F)Nc1ccc2c(c1)OCO2 the results were Rango release inh -4.6% and Rango-impB inh -3.0%.
Screening Cc1cc(Cl)ccc1C(=O)C1CCCN(C(=O)c2cc(C(C)C)no2)C1 (stereo unspecified) returned miR-21 FLuc -2.4%, GLA inh pH 4.5 -9.2, Rango release inh 7.8% and Rango-impB inh 1.6%.
`Cc1c(C(=O)NCCc2ccccc2)oc2ccc(S(=O)(=O)N3CCOCC3)cc12` gave miR-21 FLuc -0.9%, GLA inh pH 4.5 -8.9, Rango release inh 4.6% and Rango-impB inh -2.5%.
`COc1ccccc1OCc1ccc(C(=O)N2CCN(C(=O)c3ccco3)CC2)cc1` gave miR-21 FLuc 3.8%, GLA inh pH 4.5 4.4, Rango release inh 9.4% and Rango-impB inh inconclusive.
NC(=O)CCN(Cc1ccccc1)S(=O)(=O)c1ccccc1 was read as miR-21 FLuc -0.2%, GLA inh pH 4.5 7.0, Rango release inh 29.4% and Rango-impB inh inconclusive.
O=C1COc2ccc(C(=O)COC(=O)c3ccc([N+](=O)[O-])cc3Cl)cc2N1 was read as Rango release inh -1.7% and Rango-impB inh -1.9%.
Cc1cc2nc(CCN3CCOCC3)n(S(=O)(=O)c3ccc(C(C)(C)C)cc3)c2cc1C was read as miR-21 FLuc -7.4%, GLA inh pH 4.5 2.7, Rango release inh 0.6% and Rango-impB inh -6.4%.
Cc1ccc(CNS(=O)(=O)N(C)C)cc1 was read as miR-21 FLuc -3.0%, GLA inh pH 4.5 9.2, Rango release inh -6.6% and Rango-impB inh 4.9%.
For CCOC(=O)C1(CCc2ccccc2)CCN(C(=O)c2cc(C)nc(C)n2)CC1 the results were miR-21 FLuc -19.0%, GLA inh pH 4.5 4.8, Rango release inh -13.1% and Rango-impB inh 0.0%.
`CN(C)c1ccc(/C=C(\Cl)c2nc3ccccc3s2)cc1` gave miR-21 FLuc -32.1%, GLA inh pH 4.5 4.2, Rango release inh inconclusive and Rango-impB inh inconclusive.
`Oc1ccc(C=NC2CCCCC2)c(O)c1` gave miR-21 FLuc -0.6%, GLA inh pH 4.5 1.4, Rango release inh 11.4% and Rango-impB inh -2.3%.
For Cc1cc(NC(=O)COC(=O)CCS(=O)(=O)c2ccc(Cl)cc2)no1 the results were miR-21 FLuc 14.5%, Rango release inh -1.7% and Rango-impB inh -0.8%.
For O=C(c1ccccc1-c1ccccc1)N1CCCCC1 the results were miR-21 FLuc 1.8%, GLA inh pH 4.5 2.7, Rango release inh -2.0% and Rango-impB inh -3.6%.
`O=C(COC(=O)c1cccs1)Nc1cccc(S(=O)(=O)NC2=NCCCCC2)c1` gave miR-21 FLuc -1.5%, GLA inh pH 4.5 -6.9, Rango release inh -3.6% and Rango-impB inh 2.4%.

Already shown: an excerpt of the list.
For Cc1cc(NC(=O)COC(=O)CCS(=O)(=O)c2ccc(Cl)cc2)no1 the results were miR-21 FLuc 14.5%, Rango release inh -1.7% and Rango-impB inh -0.8%.
For O=C(c1ccccc1-c1ccccc1)N1CCCCC1 the results were miR-21 FLuc 1.8%, GLA inh pH 4.5 2.7, Rango release inh -2.0% and Rango-impB inh -3.6%.
`O=C(COC(=O)c1cccs1)Nc1cccc(S(=O)(=O)NC2=NCCCCC2)c1` gave miR-21 FLuc -1.5%, GLA inh pH 4.5 -6.9, Rango release inh -3.6% and Rango-impB inh 2.4%.

The listing continues:
Screening Cn1nnnc1Sc1ncnc2scc(-c3cccs3)c12 returned Rango release inh -8.1% and Rango-impB inh -1.5%.
For Cc1cc(C)n(-c2nnc(C)n2/N=C/c2ccco2)n1 the results were miR-21 FLuc 4.1%, GLA inh pH 4.5 -10.1, Rango release inh 13.3% and Rango-impB inh 7.4%.
For CN(N=Nc1ccc([N+](=O)[O-])cc1)c1ccccc1 the results were miR-21 FLuc -68.7%, GLA inh pH 4.5 -2.2, Rango release inh -23.8% and Rango-impB inh inconclusive.
COc1ccc(C2C(C(=O)Nc3cc(C)on3)c3ccccc3C(=O)N2C)cc1OC (stereo unspecified) was read as miR-21 FLuc -1.2%, GLA inh pH 4.5 -16.9, Rango release inh 1.0% and Rango-impB inh 2.5%.
CCn1c(=O)c(C(=O)NCc2ccccc2)c(O)c2ccccc21 was read as miR-21 FLuc 0.5%, Rango release inh 6.6% and Rango-impB inh -0.2%.
Screening COc1ccc(OC)c(C2C(C#N)=C(N)Oc3cc(N)ccc32)c1 (stereo unspecified) returned miR-21 FLuc -7.1%, GLA inh pH 4.5 7.1, Rango release inh inconclusive and Rango-impB inh inconclusive.
`CCOc1ccc(N2CC(C(=O)NCCc3ccccc3)CC2=O)cc1` (stereo unspecified) gave miR-21 FLuc 3.3%, Rango release inh -6.9% and Rango-impB inh 0.5%.
Screening N/C(CN1CCSCC1)=N\OCc1c(F)cccc1Cl returned miR-21 FLuc -13.4%, GLA inh pH 4.5 6.8, Rango release inh -3.4% and Rango-impB inh -2.4%.
For Cc1cc(=O)oc(C)c1C(=O)OC(C(=O)c1ccccc1)c1ccccc1 (stereo unspecified) the results were miR-21 FLuc -10.2%, GLA inh pH 4.5 -3.3, Rango release inh -3.8% and Rango-impB inh -1.9%.

A portion of the library. The share of hits here may be higher or lower than overall.
